From PubChem
PV pol inh = poliovirus RdRp elongation inhibitors, primary screen, biochemical, fluorescence polarization, total intensity | Genome polyprotein (Poliovirus type 1 (strain Mahoney)), P03300 | poliovirus polymerase elongation; active compounds read low | % elongation, % (compound at 16.7 µg/mL) | 0.66% of 150,000 active | AID 588519, 2011; in the data active = % elongation below about 90%; note: some results filed as inactive read as strong as hits
Target sequence (P03300 1749-2209 limits assumed): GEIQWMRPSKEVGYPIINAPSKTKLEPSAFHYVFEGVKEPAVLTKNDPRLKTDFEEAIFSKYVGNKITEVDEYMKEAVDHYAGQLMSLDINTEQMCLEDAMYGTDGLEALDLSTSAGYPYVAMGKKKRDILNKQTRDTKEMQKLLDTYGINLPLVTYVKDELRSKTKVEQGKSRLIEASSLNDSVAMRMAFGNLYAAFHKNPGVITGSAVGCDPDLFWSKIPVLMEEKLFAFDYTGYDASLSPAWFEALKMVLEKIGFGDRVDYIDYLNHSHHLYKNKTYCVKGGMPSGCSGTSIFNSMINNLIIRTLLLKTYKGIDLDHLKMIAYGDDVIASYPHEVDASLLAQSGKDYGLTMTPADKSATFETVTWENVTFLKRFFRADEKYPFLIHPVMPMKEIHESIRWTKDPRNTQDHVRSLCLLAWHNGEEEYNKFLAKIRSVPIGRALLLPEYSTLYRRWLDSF
PV pol inh intensity = also measured in PV pol inh; calls as there; % elongation; measured here: total intensity read-out; formula for this scale not given here;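 total fluorescence in place of polarization; lower means less elongation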
* marks the source's active call; other numbers are inactive results. The list is partial; count on the stated rates, not on these rows.

SMILES,PV pol inh intensity,PV pol inh
CC(C)Cc1nn2c(=O)cc(COC(=O)CNC(=O)c3ccc(C(C)(C)C)cc3)nc2s1,106.0,112.0
CCc1ccc(NC(=O)C2CCCN(S(=O)(=O)c3cccc4nonc34)C2)cc1 (stereo not given),105.0,105.0
Cc1ccc(Cl)cc1NC(=O)C1CCCN(S(=O)(=O)c2cccc3cccnc23)C1 (stereo not given),108.0,103.0
COc1ccc(C)c2sc(N(Cc3cccnc3)C(=O)COc3ccccc3)nc12,106.0,113.0
CCOCCc1nn2c(=O)cc(COC(=O)COc3ccc(C)c(C)c3)nc2s1,105.0,105.0
CCN(CC)c1nn2c(=O)c(C(=O)NCc3cccc(OC)c3OC)cnc2s1,114.0,108.0
Cc1cc2nnc(SCc3ccc(F)cc3)n2c2ccccc12,108.0,107.0
CCOC(=O)c1ccc(NC(=O)c2csnn2)cc1,103.0,110.0
CCCn1c2ccccc2c2cnn(CC(=O)Nc3ccc(C)cc3Br)c(=O)c21,110.0,110.0
Cc1c(Cl)cccc1NC(=O)CN(CCc1ccccc1)S(=O)(=O)c1ccccc1,105.0,104.0
CCOc1ccccc1Nc1sc(C(=O)c2ccccc2)c(N)c1C(=O)Nc1ccc(F)cc1,115.0,111.0
CCOc1ccc(-n2nc(CO)c(C(=O)NCc3cccc(OC)c3)n2)cc1,105.0,105.0
Cc1ccc(NC(=O)CSc2nc(-c3ccccc3Cl)nc3cc(=O)[nH]n23)c(C)c1,102.0,97.0
Cc1ccc(C)c(Cn2c3ccccc3c3cnn(CC(=O)NCc4ccccc4)c(=O)c32)c1,107.0,108.0
O=C(c1cccs1)N1CCCc2cc(NS(=O)(=O)c3cc(F)ccc3F)ccc21,106.0,105.0
Cc1ccc(C)c(CN2C(=O)CSc3ccc(C(=O)NCCc4ccc(Cl)cc4)cc32)c1,109.0,108.0
Cc1nc2cc(-c3ccccc3)nn2c(C)c1CCC(=O)Nc1ccc(F)cc1F,108.0,104.0
Cc1ccc(CN(C(=O)COc2cccc(Cl)c2)c2ccccn2)o1,103.0,108.0
Clc1ccc2c(c1)NC(c1ccncc1)=NC(c1cccs1)=N2,103.0,102.0
CCCCNC(=O)C1CCN(Cc2nc(-c3ccc(OC)c(OC)c3)oc2C)CC1,108.0,105.0
Cn1cnnc1SCC(=O)Nc1ccc(C#N)cc1,101.0,101.0
COc1ccc(C(=O)Nc2ccc(C(=O)OCc3cc(=O)n4nc(C(C)C)sc4n3)cc2)cc1,100.0,107.0
O=C(Cn1ncc2ccsc2c1=O)N1CCN(c2ccccc2F)CC1,107.0,107.0
COCCNC(=O)CCC(=O)NNc1nc2ccccc2c2nc(C)nn12,45.0*,30.0*
Cc1cccc(C(CC(=O)NCC2(c3ccccc3)CCCC2)c2ccccc2)c1O (stereo not given),105.0,105.0
O=C(c1cccn1-c1nnc(N2CCCC2)s1)N1CCN(c2ccc(F)cc2)CC1,101.0,112.0
COc1ccc(Nc2nc3c(S(=O)(=O)c4ccccc4)nnn3c3ccc(Cl)cc23)c(OC)c1,103.0,103.0
COC(=O)c1ccccc1NC(=O)N1CCc2c(sc3c2CCCC3)C1c1ccc(F)cc1 (stereo not given),101.0,108.0
CCc1ccc(N2CCn3c2nc2c3c(=O)n(Cc3cccc(C)c3)c(=O)n2C)cc1,110.0,112.0
CC(C)N(C(=O)CSc1nc2ccc(Cl)cc2[nH]1)c1ccccc1,98.0,103.0
COc1ccccc1CNC(=O)CCCN1C(=O)CSc2c1c(C)nn2-c1ccccc1,112.0,110.0
COC(=O)c1ccc(Cl)cc1NC(=O)N(C)CCc1c(C)nn(C)c1C,99.0,104.0
O=C(COC(=O)c1cccc(NC(=O)c2ccc(Br)cc2)c1)c1ccc(Br)cc1,111.0,110.0
CCC(=O)N1c2ccccc2CC1C(=O)NCc1cc(OC)ccc1OC (stereo not given),108.0,106.0
Cc1cccc(NC(=O)CCn2nc(-c3ccccc3)c3ccccc3c2=O)c1,104.0,98.0
COc1ccc(CCNC(=O)CSc2cn(CCNC(=O)c3ccccc3F)c3ccccc23)cc1OC,104.0,104.0
CCOC(=O)c1cnc2ccc(C)cc2c1Nc1ccc(OCc2ccccc2Cl)cc1,103.0,101.0
CCc1cccc(C)c1NC(=O)C1CCN(S(=O)(=O)c2c(C)noc2/C=C/c2c(C)cc(C)cc2C)CC1,96.0,109.0
COc1ccc(C)cc1-n1cnc2cc(C(=O)NC3CCCC3)ccc21,100.0,103.0
CCc1cccc(-n2c(=O)c3cccnc3n2CC(=O)Nc2ccccc2C(=O)OC)c1,109.0,108.0
Cc1cc(C)c(NS(=O)(=O)c2cc(-c3onc(C)c3C)ccc2C)c(C)c1,107.0,105.0
Cc1nnc(N2CCN(c3ccccc3F)CC2)c2c1nnn2Cc1ccccc1,113.0,108.0
CCOC(=O)c1ccc(NC(=O)c2cc3c(=O)n(C)c4ccccc4c3n2C)cc1,106.0,102.0
Cc1ccccc1C(=O)Nc1sc2c(c1C(=O)N1CCCCC1)CCC(C)C2 (stereo not given),106.0,105.0
Cc1nn(C)c2c1c(C(F)(F)F)cc(=O)n2C(C)C(=O)NCCC(C)C (stereo not given),105.0,105.0
CCCCCn1c(=N)c(S(=O)(=O)c2ccccc2)cc2c(=O)n3ccccc3nc21,115.0,105.0
O=C(NCC(c1ccc2c(c1)OCO2)N1CCN(c2ccccc2)CC1)c1ccccc1F (stereo not given),106.0,101.0
COc1cc(NC(=O)c2nnn(CC(=O)Nc3cc(C)ccc3C)c2N)cc(OC)c1,114.0,113.0
O=C(Nc1ccc(Br)cc1)c1cc2nc(-c3ccccc3)cc(-c3ccccc3)n2n1,113.0,104.0
Cc1cccc(-c2nc(Cn3c(SCc4cccc(C(F)(F)F)c4)nc4ccncc43)c(C)o2)c1,106.0,103.0

Three entries from above, ordered by formula weight, ascending.
SMILES,PV pol inh intensity,PV pol inh
Cc1nn(C)c2c1c(C(F)(F)F)cc(=O)n2C(C)C(=O)NCCC(C)C (stereo not given),105.0,105.0
CCOC(=O)c1ccc(NC(=O)c2cc3c(=O)n(C)c4ccccc4c3n2C)cc1,106.0,102.0
CCc1ccc(N2CCn3c2nc2c3c(=O)n(Cc3cccc(C)c3)c(=O)n2C)cc1,110.0,112.0

(further entries)
SMILES,PV pol inh intensity,PV pol inh
Cc1ccc(CNS(=O)(=O)c2cc(C(=O)Nc3ccc(C(C)C)cc3)ccc2F)cc1,103.0,105.0
NC(=O)COc1ccc(-c2noc(COc3ccc(Cl)cc3)n2)cc1,105.0,104.0
COc1ccc(Cl)cc1NC(=O)Cn1c(=O)n(CCC(=O)NCc2ccc3c(c2)OCO3)c(=O)c2ccccc21,111.0,111.0
CCN1CCN(c2ncnc3c2cnn3-c2cc(Cl)ccc2C)CC1,101.0,105.0
O=C1c2[nH]nc(-c3ccccc3O)c2C(c2cccc(Cl)c2)N1Cc1cccnc1 (stereo not given),95.0,101.0
CC(C)c1ccc(NC(=O)Nc2csc3c2CCCC3)cc1,108.0,107.0
COC(=O)c1ccccc1NC(=O)c1nc(S(=O)(=O)Cc2cccc(C)c2)ncc1Cl,109.0,108.0
Cc1ccc(Cl)cc1NC(=O)c1oc2ccc(S(=O)(=O)N3CCC4(CC3)OCCO4)cc2c1C,106.0,110.0
Fc1ccc(Nc2nc(SCc3ccccc3Cl)nc3ccccc23)cc1,106.0,101.0
CCOc1ccc(-c2cc(C(=O)Oc3ccc(C#N)cc3)no2)cc1,108.0,108.0
O=C(CSCc1cnn(-c2ccccc2)c1-n1cccc1)NCc1cccc(Cl)c1,117.0,112.0
CCCOc1cccc(C(=O)Nc2cccc3cccnc23)c1,97.0,102.0
CCCNC(=O)C1CCN(C(=O)N2CC(C)Oc3ccccc32)CC1 (stereo not given),113.0,111.0
COc1ccc(C)cc1NC(=O)CN(C)S(=O)(=O)c1ccc2c(c1)c(=O)n(C)c(=O)n2C,102.0,99.0
Cc1ccc(NC(=O)Nc2ccc3nc(N4CCN(C)CC4)cc(C)c3c2)cc1F,104.0,103.0
COCCn1c(SCC(=O)c2cc(C)ccc2C)nc2cc(C(=O)NC3CCCC3)ccc2c1=O,106.0,102.0
COC(=O)Cn1c(=O)c2cccn2c2cccnc21,106.0,108.0
COC(=O)c1cc2occc2n1Cc1nc(-c2cccc(Br)c2)oc1C,108.0,106.0
COc1ccc(CNc2ncnc3c2cnn3-c2ccc(C)c(C)c2)cc1,99.0,105.0
COC(=O)c1cc2oc3ccccc3c2n1CC(=O)Nc1ccc(F)c(Cl)c1,110.0,106.0
COc1cccc(OC(=O)CSc2nnc(-c3cccs3)o2)c1,80.0*,90.0*
CCCOc1ccc(C2C(=O)N(C3CCC(C)CC3)CC(=O)N2Cc2cccc(OC)c2)cc1OC (stereo not given),112.0,114.0
CCOc1ccccc1Nc1ncnc2c1cnn2-c1ccc(C)cc1,114.0,111.0
CCOC(=O)C1CCN(c2cc3c(cc2NC(=O)c2ccc(OC)c(OC)c2)n(C)c(=O)n3C)CC1,107.0,101.0
Cn1c(=O)n(C)c2cc(CNCc3ccccc3Cl)ccc21,103.0,110.0

Full records from above. Order of values: PV pol inh intensity, PV pol inh
Results for COc1ccc(Cl)cc1NC(=O)Cn1c(=O)n(CCC(=O)NCc2ccc3c(c2)OCO3)c(=O)c2ccccc21 → 111.0, 111.0
Results for CCCCNC(=O)C1CCN(Cc2nc(-c3ccc(OC)c(OC)c3)oc2C)CC1 → 108.0, 105.0
Results for CCN1CCN(c2ncnc3c2cnn3-c2cc(Cl)ccc2C)CC1 → 101.0, 105.0
Results for CCCOc1ccc(C2C(=O)N(C3CCC(C)CC3)CC(=O)N2Cc2cccc(OC)c2)cc1OC (stereo not given) → 112.0, 114.0
Results for Cn1c(=O)n(C)c2cc(CNCc3ccccc3Cl)ccc21 → 103.0, 110.0

New compounds follow:
SMILES,PV pol inh intensity,PV pol inh
CCCc1cc(=O)oc2c(C)c3c(cc12)CN(CCc1ccc(Cl)cc1)CO3,111.0,105.0
CCc1ccc(NC(=O)c2nn(-c3ccc(C)cc3)c(=O)n(C)c2=O)cc1,103.0,105.0
CCOC(=O)C1=C(CN2CCC(C)CC2)NC(=O)NC1c1ccc(F)cc1 (stereo not given),111.0,107.0
CCS(=O)(=O)N1CCc2cc(C(=O)Nc3cc([N+](=O)[O-])ccc3C)ccc21,108.0,107.0
CSc1nn(Cc2ccc(F)cc2)c(N(C(C)=O)C(C)=O)c1S(=O)(=O)c1ccccc1,107.0,105.0
CCOCCCNC(=O)C(c1ccc(OC)cc1)N(Cc1cccs1)C(=O)c1ccccc1O (stereo not given),103.0,101.0
COc1ccc(S(=O)(=O)N(CC(=O)Nc2ccccc2Cl)Cc2ccccc2)cc1,110.0,105.0
CS(=O)(=O)c1ncc(N(Cc2ccccc2)Cc2ccco2)c(C(=O)Nc2cccc(C(F)(F)F)c2)n1,98.0,110.0
Cc1ccc(-n2ncc3c(N(C)Cc4ccccc4)ncnc32)cc1,114.0,114.0
CCOc1ccc(CNC(=O)CCCn2c(=O)c3cccn3c3cccnc32)cc1,103.0,108.0
CCOc1ccc(-c2noc(CSc3nnc(Cc4ccccc4)n3-c3ccc(F)cc3)n2)cc1,106.0,107.0
CCOc1ccc(NC(=O)CCCn2c(C)c3cnn(-c4ccccc4)c(=O)c3c2C)cc1,105.0,104.0
COc1ccc(NC(=O)CCS(=O)(=O)c2nc(-c3ccc4c(c3)OCO4)cc(C(F)(F)F)n2)c(OC)c1,107.0,104.0
COc1ccc(OC)c(NC(=O)CN2C(=O)CCc3cc(S(=O)(=O)N4CCCCC4)ccc32)c1,108.0,110.0
CCOC(=O)c1ccc2ncc(C(=O)OCC)c(Nc3ccc(C)c(Br)c3)c2c1,112.0,107.0
Cc1ccc(C)c(-c2csc(-c3c(N)c(C(=O)c4ccc5c(c4)OCO5)n4ccccc34)n2)c1,110.0,109.0
O=C(CSc1nccn1-c1ccc(F)cc1)Nc1cccc2ccccc12,107.0,104.0
Cc1ccc(OCC(=O)Nc2ccc3nc(SCC(=O)N4CCOCC4)sc3c2)cc1,118.0,108.0
CC(=O)c1ccc(NC(=O)CSc2nccn2Cc2ccco2)cc1,111.0,106.0
CCOC(=O)c1ccccc1NC(=O)Cn1c(=O)n(-c2cccc(C)c2)c(=O)c2c1c1cc(C)ccc1n2C,112.0,109.0
Cc1nn(CC(=O)NCc2ccc(N(C)C)cc2)c(=O)c2c(C)n(-c3ccc(Cl)cc3)nc12,108.0,104.0
Oc1c(C(c2ccc(F)cc2)N2CCCC2)sc2nc(-c3ccco3)nn12 (stereo not given),113.0,107.0
COc1ccc(-c2cn3nc(N4CCCC(C(=O)NCc5ccc(Cl)cc5)C4)sc3n2)cc1 (stereo not given),112.0,110.0
CCC(Sc1nc(-c2ccccc2F)nc2c1Cc1c(CO)cnc(C)c1O2)C(=O)Nc1cc(C)ccc1C (stereo not given),109.0,108.0
CCOC(=O)c1ccccc1NC(=O)c1nn(-c2ccc(OC)c(Cl)c2)c(=O)c2c1c1ccccc1n2C,110.0,107.0
COCCc1nn2c(=O)cc(COC(=O)c3ccc(OC)c(OC)c3)nc2s1,101.0,104.0
CN1CCN(C(=O)c2ccc3c(c2)N(Cc2c(F)cccc2Cl)C(=O)c2ccccc2S3)CC1,104.0,106.0
Cc1ccccc1OCCCCn1c(C2CC(=O)N(c3ccccc3Cl)C2)nc2ccccc21 (stereo not given),103.0,108.0
CCC(C)NC(=O)c1ccc(-n2c(-c3ccccc3)cc3c2CCCC3)cc1 (stereo not given),101.0,101.0
CCc1nc2c(cnn2-c2ccc(C)cc2)c(=O)n1-c1ccc(C)cc1,107.0,112.0
CCOC(=O)c1sc(NC(=O)c2nc(SCC)ncc2Cl)c(C(=O)OCC)c1C,116.0,124.0
